AmpC inh no det – AmpC beta-lactamase inhibition, detergent-free assay. AmpC nitrocefin hydrolysis, absorbance 480 nm, no detergent; potencies from a single point are estimates. 71,000 compounds, 1.8% hits. P00811. Potency, µM (titrated, usually from 28.7 µM), inactives show at the top dose activity change, negative = inhibition; active = falling curve, for most hits resting on a single point; inconclusive = weak or doubtful change; inactive = flat or rising curve; further: % of control where 0% means no effect; about half of the hits show no inhibition at the top dose; a quarter of the inactives give rising signals
Target sequence (P00811 whole entry, looked up): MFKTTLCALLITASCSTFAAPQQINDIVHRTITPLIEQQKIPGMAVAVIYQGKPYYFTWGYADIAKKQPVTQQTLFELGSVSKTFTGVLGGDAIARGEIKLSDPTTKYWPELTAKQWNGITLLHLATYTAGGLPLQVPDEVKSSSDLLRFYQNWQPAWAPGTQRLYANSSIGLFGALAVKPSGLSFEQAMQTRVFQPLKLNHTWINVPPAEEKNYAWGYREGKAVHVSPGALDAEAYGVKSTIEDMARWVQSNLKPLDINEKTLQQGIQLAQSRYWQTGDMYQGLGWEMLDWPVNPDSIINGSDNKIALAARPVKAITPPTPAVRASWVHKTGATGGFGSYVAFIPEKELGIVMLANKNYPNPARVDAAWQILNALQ
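Enzyme, pH 7.0 phosphate. Compound titrations were pre-incubated with AmpC for 15 min at room temperature before nitrocefin (stock 800 uM) addition; product formation was recorded at 480 nm every 20 s for 4 min.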
The depositor's hits bear a star; & = joins results of further samples; [ ] = remark or other dose. Potency means the concentration at half of the fitted maximal effect. An excerpt; rates above refer to the full screens.

Structure	AmpC inh no det
COc1cc(C2C(C(=O)c3ccc(C)o3)=C(O)C(=O)N2c2cc(C)on2)ccc1O (stereo unspecified)	-10%
O=C1CC(c2ccccc2)C(C(=O)O)N1 (stereo unspecified)	-4%
O=C(CSc1nnc(C2COc3ccccc3O2)o1)N1CCCCC1 (stereo unspecified)	32%
c1ccc(-c2cc(N3CCOCC3)nc(-c3ccccc3)n2)cc1	9%
CN(C)CCCN1c2ccccc2Sc2cnccc21	-1%[5.75 µM]
Cc1cccc2cc(C(c3nnnn3C3CCCC3)N3CCOCC3)c(=O)[nH]c12 (stereo unspecified)	46%
CN1CCC2(CC1)CCN(C(=O)c1ccncc1)CC2	10%
CCc1sc(C(=O)NC2CCN(C)CC2)cc1Br	6%
Cc1ccc(-n2nc3c(c2NC(=O)c2ccc4c(c2)OCO4)CS(=O)C3)cc1 (stereo unspecified)	16%
Cc1c(C)c2cc(Cl)c(OCc3nn[nH]n3)cc2oc1=O	-15%
Cc1cccc(-n2c(SCC(=O)Nc3nonc3C)nnc2-c2ccoc2C)c1	35%
C#C[C@H](N)CCC(=O)O	0%
COC(=O)Cn1c(=NC(=O)CSCC(=O)NC2CCCCC2)sc2cc(OC)ccc21	49%
O=C(c1ccccc1)N1CCN(C2CC(=O)N(CCc3ccccc3)C2=O)CC1 (stereo unspecified)	67%
CC(C)=CCSc1nnc([C@@H](N)Cc2c[nH]c3ccccc23)o1	44%
CC(C)c1[nH]nc2c1C(c1cccc(OC(=O)N3CCOCC3)c1)C(C#N)=C(N)O2 (stereo unspecified)	22%
CCOC(=O)c1oc2ccccc2c1NC(=O)COC	-5%
N#C/C(=C\c1ccc(O)c(O)c1)C(=O)OCCc1cccs1	-23%
Cc1cc(C)nc(SCCc2cccc[n+]2C)n1	10%[5.75 µM]
CC(=O)c1ccc(NC(=O)CN2C(=O)COc3ccc(Cl)cc32)cc1	18%
C[C@H]1CCC[C@H](O)CCCCCc2cc(O)cc(O)c2C(=O)O1	-6%&-4%
Cc1c(C)n(CC(O)CN2CCCCCC2)c2ccccc12 (stereo unspecified)	12%
COCc1[nH]nc2c1C(c1ccsc1)C(C#N)=C(N)O2 (stereo unspecified)	-14%
Cc1c(NC(=O)Nc2ccc(Cl)cc2)c(=O)n(-c2ccccc2)n1C	-10%
CCOc1ccc(-c2n[nH]c(C)c2Oc2ccc(OC)cc2)c(O)c1	-2%
Cc1ccc(SCc2[nH]nc3c2C(c2ccco2)C(C#N)=C(N)O3)cc1 (stereo unspecified)	-5%
COC(=O)C1=C(C)N(C)C(C)=C(C(=O)OC)C1c1ccccn1	22%
C=C1N2CCC(CC2)C1(O)c1ccccc1C (stereo unspecified)	-8%
CCCCCCCCCCC/C=C\C(C)(C)/C=C\CCCC(=O)O	-2%
CN1CCN(c2nc3c(c(=O)[nH]c(=O)n3C)n2CCSc2ncccn2)CC1	-13%

Retrieved one by one from the list above, 5 records:
Structure	AmpC inh no det
COc1cc(C2C(C(=O)c3ccc(C)o3)=C(O)C(=O)N2c2cc(C)on2)ccc1O (stereo unspecified)	-10%
Cc1c(C)c2cc(Cl)c(OCc3nn[nH]n3)cc2oc1=O	-15%
COC(=O)C1=C(C)N(C)C(C)=C(C(=O)OC)C1c1ccccn1	22%
CCCCCCCCCCC/C=C\C(C)(C)/C=C\CCCC(=O)O	-2%
COC(=O)Cn1c(=NC(=O)CSCC(=O)NC2CCCCC2)sc2cc(OC)ccc21	49%

The list continues.
Structure	AmpC inh no det
COc1ccccc1-n1cnc(N)c1C(C)=O	8%
CC(C)(C)OC(=O)N1CCCC1C(=O)O (stereo unspecified)	-7%
CCn1c(=O)c(C(C)=O)nc2ccccc21	0%
O=S(=O)(c1cccs1)N1CCCc2ccccc21	-13%
O=S(=O)(O)c1ccc(NN(c2c(O)ccc3ccccc23)S(=O)(=O)O)cc1	-9%[5.75 µM]
CCC(=O)c1cc2c(cc1NC(=O)c1cccs1)OCCO2	-2%
O=C(NC1CCCCC1)c1cccc(S(=O)(=O)N2CCOCC2)c1	14%
COc1ccccc1Cc1noc(COc2cccc(C)c2C)n1	-9%
COC(=O)c1ccc(CSc2nc3c(c(=O)n2-c2ccc(Br)cc2)SCC3)o1	10%
CCOC(=O)c1c(N)ssc1=S	-3%
CC(C)N(Cc1nc(-c2ccc(Cl)cc2)no1)C(=O)c1cccs1	-10%
O=C1C2C3C=CC([C@@H]2C(=O)N1c1nccs1)C31CC1 (stereo partly specified)	15%
CC(C)(CO)Cc1cc(C(C)(C)C)c(O)c(C(C)(C)C)c1	41%&34%
C=CCn1c(COc2ccc(F)cc2)nnc1SCC(=O)NC(=O)NCc1ccco1	1%
Cc1ccc(S(=O)(=O)NCc2ccco2)cc1C	-8%
O=C(COc1ccc(Cl)cc1)Nc1nnc(-c2ccc3c(c2)CCCC3)o1	-1%
N#Cc1c(NC(=O)CSc2nnnn2C2CCCCC2)sc2c1CCCC2	-8%
Cc1ccc(CNC(=O)c2cc3c(-c4ccc(Cl)cc4)nn(C)c3s2)o1	4µM*[single pt active]
O=C1CCCc2nc(NCc3ccco3)ncc21	-16%
O=C(Nc1cccc(-c2cn3ccsc3n2)c1)c1ccccc1	-10%
CCOC(=O)c1c(N)sc2c(OC)c(Br)ccc12	10%
O=C(c1cccc(F)c1)N1CCC[C@@]2(CCN(c3ncccn3)C2)C1	4%
Cc1nn(C)c(C)c1S(=O)(=O)N(CC(=O)NCCCOC(C)C)c1ccc(C(C)C)cc1	120%
C=CCN1CC[C@]23c4c5ccc(O)c4O[C@@H]2/C(=N/NC(=O)c2ccccc2)CC[C@@]3(O)[C@H]1C5	0%
COc1ccccc1-c1ccc(=O)n(CC(=O)NC(C)(C)C)n1	25%
C#CCN[C@@H](C)Cc1ccccc1	3%
CC(C)(C[C@@]1(C)NC(=O)NC1=O)OCc1ccccc1	1%[5.75 µM]
CCOc1ccc(C(=O)CCN2CCCCCC2)cc1	1%
O=c1c(-c2cc(F)cc(F)c2)nc2cnc(N3CCOCC3)nc2n1CCc1ccccc1	-9%
N=c1ccn(Cc2ccc(Cl)c(Cl)c2)cc1	-9%

By substructure: those above with a Cl atom.
Structure	AmpC inh no det
Cc1c(C)c2cc(Cl)c(OCc3nn[nH]n3)cc2oc1=O	-15%
CC(=O)c1ccc(NC(=O)CN2C(=O)COc3ccc(Cl)cc32)cc1	18%
Cc1c(NC(=O)Nc2ccc(Cl)cc2)c(=O)n(-c2ccccc2)n1C	-10%
CC(C)N(Cc1nc(-c2ccc(Cl)cc2)no1)C(=O)c1cccs1	-10%
O=C(COc1ccc(Cl)cc1)Nc1nnc(-c2ccc3c(c2)CCCC3)o1	-1%
Cc1ccc(CNC(=O)c2cc3c(-c4ccc(Cl)cc4)nn(C)c3s2)o1	4µM*[single pt active]
N=c1ccn(Cc2ccc(Cl)c(Cl)c2)cc1	-9%

Other entries follow.
Structure	AmpC inh no det
CCNC(=O)N1C(=O)C2(OCCO2)c2cc(Br)ccc21	2%
COC(=O)C1CCN(C(=O)c2ccc(SC)cc2OC)CC1	17%
Cc1cc(Nc2ccccc2)nn1C(=O)c1ccccc1	-7%
COc1ccccc1NC(=O)CN1CCC(n2nnc3cc(F)ccc32)CC1	72%
C1CCC(CNc2c3c(nc4nnnn24)CCCC3)CC1	-7%
COc1ccc(NS(=O)(=O)c2ccc(SC)cc2)cc1	-15%
CNC(=O)C1(CC(C)C)C=CCN1C(C)=O (stereo unspecified)	-5%
O=C(NCC(=O)N(c1ccccc1)C(C(=O)NC1CCCCC1)c1ccncc1)c1ccco1 (stereo unspecified)	49%
COC(=O)c1ccc2c(c1)SC1=C(CCCC1=O)N2	-10%
O=C(NCCN1CCCC1)c1ccc(Cn2c(=S)[nH]c3cc4c(cc3c2=O)OCO4)cc1	21%
CCOCC(=O)Nc1nc2ccc(OC)cc2s1	-10%
O=C(NCCN1CCN(c2ccccc2)CC1)c1cccc(Br)c1	46%
COc1ccc2c(c1)c1nnc(SCC(=O)N3CCCCC3C)nc1n2C (stereo unspecified)	79%
COc1ccc(-n2nc3cc(C)c(NC(=O)CC(C)C)cc3n2)cc1	-10%
CCN(CCCNC(=O)CCn1c(=O)[nH]c2ccccc2c1=O)c1cccc(C)c1	43%
O=C(CCCOc1ccccc1)Nc1ccc2c(c1)OCCO2	-16%
Cn1cnnc1SCc1ccc(C(=O)n2ncc(C#N)c2N)cc1	-8%
Cc1ccc(S(=O)(=O)N(CCC#N)CCN2CCCC2)cc1	15%
O=C(NCC1CCCCC1)C1CCN(C(=O)NC2CCCCC2)CC1	16%
O=S1(=O)CC(O)C(NCc2cccnc2)C1 (stereo unspecified)	-14%
COc1ccc(C(=O)n2nc(C)cc2C)cc1Br	-2%
CC1Oc2ccccc2N(CC(=O)N2CCc3ccccc32)C1=O (stereo unspecified)	50%
O=C(CN1CCOCC1)Nc1c(-c2ccccc2)c2cc(Br)ccc2[nH]c1=O	98%
CCOc1ccc(NC(=O)Nc2cc(C)on2)cc1	-12%
CCCCOC(=O)CSC1=C(C#N)C(c2ccccc2OCC)C(C#N)C(=O)N1 (stereo unspecified)	-19%
CCc1cc(C(=O)Cc2nc3ccccc3[nH]2)c(O)cc1O	-24%
Nc1nc(Nc2ccccc2Br)nc(C(F)(F)F)n1	-15%
Clc1ccccc1-c1cncnc1NCc1cccs1	3%
COc1ccc(CNS(=O)(=O)c2ccc3oc(C(=O)O)c(C)c3c2)cc1	-8%
COC(=O)c1ccccc1COn1c(=O)c[n+]([O-])c2ccccc21	10%

Some values from the entries so far.
CCCCOC(=O)CSC1=C(C#N)C(c2ccccc2OCC)C(C#N)C(=O)N1 (stereo unspecified) @ AmpC inh no det: -19%
COc1ccc(-n2nc3cc(C)c(NC(=O)CC(C)C)cc3n2)cc1 @ AmpC inh no det: -10%
COc1ccccc1NC(=O)CN1CCC(n2nnc3cc(F)ccc32)CC1 @ AmpC inh no det: 72%
CC1Oc2ccccc2N(CC(=O)N2CCc3ccccc32)C1=O (stereo unspecified) @ AmpC inh no det: 50%

(list continues)
Structure	AmpC inh no det
COc1ccc2c(c1)Cc1sc(NC(=O)c3cccs3)nc1-2	20%
CNc1ncnc2ccc(-c3cccc(OC)c3)cc12	118%
O=C(c1cccc(Cl)c1)N1CCN(Cc2ccncc2)CC1	8%
CC12CC[C@@H]3c4ccc(OS(=O)(=O)O)cc4CC[C@H]3C1CCC2=O (stereo partly specified)	-7%[12.8 µM]
C(#CCN1CCCC1)CN1CCCC1	-5%[12.8 µM]
COCCNC(=O)CN1C(=O)CSc2cc(S(=O)(=O)N3CCCCCC3)ccc21	56%
CC(C)(C)C(=O)NC1CCN(S(=O)(=O)c2cccc(C(F)(F)F)c2)CC1	36%
CCOCc1nnc(NC(=O)CSCc2ccccc2)s1	-12%
COC(=O)c1c(NC(=O)CSc2nnnn2C)sc(C)c1C	47%
O=C(O)CCCNS(=O)(=O)c1ccc(Br)s1	-5%
COc1ccccc1-c1nc(-c2ccncc2)no1	5%
O=C(NCc1ccco1)N1c2ccccc2Sc2ccccc21	-2%
COc1ccc(C)cc1S(=O)(=O)NC1CCCC1	6%
Cn1cnc2c1c(=O)[nH]c(=O)n2C	13%[12.8 µM]
Cc1nc(C)c(C(=O)NCc2ccc(Cl)cc2)o1	5%
COCC(=O)Nc1c(C(=O)Nc2cccc(OC)c2)oc2ccccc12	29%
COc1ccc(CCn2c(-n3nc(C)cc3C)nc3c2c(=O)[nH]c(=O)n3C)cc1	30%
CCOc1ccc(-n2c(C)nc3cc(C(=O)NCCCN4CCOCC4)ccc32)cc1	97%
CC(C)(C)OC(=O)NCCCCCc1nnc(SCC(N)=O)o1	-1%
Cc1cc(O)cc(=O)n1Cc1ccco1	-2%
COC(=O)c1ccc(NC(=O)c2ccc(CN3CCOCC3)cc2)cc1	22%
Cc1cc(=O)n2c(n1)OC(CO)C2 (stereo unspecified)	0%
CCn1c(=O)cc(SCC(=O)NCCCN2CCN(c3ccccc3F)CC2)c2ccccc21	110%
CCc1c2c(nc3ccccc13)OC(C)C2 (stereo unspecified)	-7%
Cn1cc(-c2nc3cnc(N4CCOCC4)nc3n(CCC#N)c2=O)c2ccccc21	10%
Cc1n[nH]c(=O)nc1NCc1ccccc1	-8%
CCCC(=O)Nc1cc(-c2nn(C)c(=O)c3ccccc23)ccc1OC	47%
CC1CC(C)CN(Cc2nc3c(c(=O)n(C)c(=O)n3C)n2Cc2ccccc2Cl)C1 (stereo unspecified)	48%
Cc1ccc(-c2ccc(=O)n(CC(=O)NCCCN3CCCCC3C)n2)cc1 (stereo unspecified)	15%
CCOc1ccccc1C(=O)N1CCCCC1C (stereo unspecified)	-5%

(listing goes on)
Structure	AmpC inh no det
CCN(c1ccc(OC)cc1)S(=O)(=O)c1ccc2c(c1)CCN2C(=O)CCC(=O)O	14%
CCCc1nc(SCC(=O)N2CCc3ccccc32)c2c(=O)n(C)c(=O)n(C)c2n1	0%
Cc1ccc(C)c(/C(O)=C2/C(=O)C(=O)N(CCN3CCOCC3)C2c2ccc(C)o2)c1 (stereo unspecified)	28%
CCC1CC(C)(C(=O)Nc2ccc(S(N)(=O)=O)cc2)OC1=O (stereo unspecified)	-10%
COC(=O)C1CCN(C(=O)C23CCC(C)(C(=O)O2)C3(C)C)CC1 (stereo unspecified)	9%
CCOC(=O)C1CCCN(S(=O)(=O)c2c(C)c(C)cc(C)c2C)C1 (stereo unspecified)	48%
COc1ccccc1NC(=O)Cc1csc(N)n1	-3%
CC(=O)Nc1ccc(Oc2cc(C#N)c(C#N)cc2N2CCCCCC2)cc1	61%
O=C(O)c1c(Br)c(Br)c(Br)c(Br)c1C1c2ccc(O)cc2Oc2cc(O)ccc21	0.16µM*
O=S(=O)(NC1CCCC1)c1ccc(S(=O)(=O)N2CCc3ccccc32)cc1	-10%

Screens (PubChem)
